# MT1-MMP promoter = MT1-MMP gene expression reporter suppression – cell-based, luciferase reporter, luminescence (AID 618) | calls from a first round at 10 µM; hits with a dose series show EC50 in µM | 0.62% of 87,000 active | MT1-MMP promoter luciferase reporter cells, luminescence;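 active means over half of the reporter light lost at 10 µM or EC50 under 50 µM; inactive means the rest and hits that failed the dose series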;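 further: actives suppress MT1-MMP promoter-driven transcription so potencies describe inhibitors; HT1080 fibrosarcoma cells; overnight exposure; toxic or luciferase-blocking compounds were not removed from the actives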
# WNV protease inh = blocks West Nile virus NS2B-NS3 protease activity. P06935. WNV NS2B-NS3 protease, fluorogenic substrate Ex360/Em465; hits give low values. z-score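 (tested at a level between 10 and 100 µM)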. 0.18% of 65,000 active. AID 577;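 active means z-score at -3 or under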;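 further: score is relative to mean and spread of the compound wells of a plate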
# Target sequence (P06935 1371-1501 limits assumed): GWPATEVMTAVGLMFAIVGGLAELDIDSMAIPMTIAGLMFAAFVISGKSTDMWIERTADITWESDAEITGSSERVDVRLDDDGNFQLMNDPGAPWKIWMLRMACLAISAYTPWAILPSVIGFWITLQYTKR
# Target sequence (P06935 1502-1679 limits assumed): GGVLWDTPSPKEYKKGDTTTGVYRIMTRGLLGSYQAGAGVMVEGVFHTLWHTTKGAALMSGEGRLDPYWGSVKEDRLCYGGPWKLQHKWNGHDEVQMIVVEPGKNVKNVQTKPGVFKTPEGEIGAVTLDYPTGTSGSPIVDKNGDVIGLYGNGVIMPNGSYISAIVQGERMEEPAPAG
# Hsc70 ATP site = Hsc70 inhibitors, probe displacement, primary screen, biochemical, fluorescence polarization (AID 568). Hsc70 fluorescence polarization, probe displacement; higher % means a stronger effect; strong numbers were not always called active. displacement, % at 20 µM, or IC50 in µM where a hit was titrated. 83,000 tested, under 10 active;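 active means displacement above 50% without optical interference and an IC50 on retest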;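 further: ATPase domain with a fluorescein-tagged ATP probe; 0% = vehicle and 100% = excess ADP; read after one hour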
# Numbers without * were called inactive; i = inactive; · = no result given. This is a subset (hit frequency here may not be typical).
Compound | MT1-MMP promoter | WNV protease inh | Hsc70 ATP site
Cc1ccc(CNC(=O)CCNC(=O)Cn2ccc3ccccc3c2=O)o1 | i | -0.49 | 7.0%
CCOC(=O)Cn1nc(Cc2ccccc2)c2ccccc2c1=O | i | · | 6.0%
OCC#CCSc1nnc(-c2ccc(Br)cc2)o1 | i | -0.92 | 2.1%
COc1ccccc1NC(=O)Cc1noc(CSc2nnc(N)s2)n1 | i | · | -4.1%
COc1ccc(OC)c(NC(=O)C2C3CC4OC(=O)C2C4C3)c1 (stereo unspecified) | i | -0.88 | 0.9%
CC(=O)Nc1c(C(=O)N2CCOCC2)sc2nc3c(cc12)COC(C)(C)C3 | i | -0.32 | -2.0%
Cn1cnnc1SCC(=O)Nc1ccccc1 | i | 0.32 | -2.9%
C=CCSc1nc2c(cnn2-c2ccc(C)c(C)c2)c(=O)[nH]1 | i | 0.71 | 5.7%
Cc1cc(C)c2c(=O)[nH]n(C3CC(C)N(C)CC3C)c2n1 (stereo unspecified) | i | 0.77 | -0.1%
CCN(CC)C(=O)CSc1nnc([C@@H](NC(=O)OC(C)(C)C)C(C)C)o1 | i | -0.97 | -7.5%
COc1ccc(N2CCN(CCNC(=O)c3c(C)cc(=O)oc3C)CC2)cc1 | i | 0.76 | 2.6%
CCN(CC)S(=O)(=O)c1cc([N+](=O)[O-])ccc1NNC(=O)Nc1ccc(Cl)c(Cl)c1 | i | · | -13.1%
OCCN(Cc1ccccc1)Cc1ccc(F)c(F)c1 | i | -0.41 | -2.0%
c1csc(-c2csc3ncnc(NCCCN4CCOCC4)c23)c1 | i | 0.77 | 0.7%
Cc1cccc(N(C(=O)CCC(=O)Nc2cc(C)on2)C(C(=O)NC2CCCC2)c2ccncc2)c1 (stereo unspecified) | i | -1.08 | -3.5%
CCc1cc2c(=O)n(-c3ccccc3)c(=S)[nH]c2s1 | i | · | 3.5%
Cc1cc(N/C=C/C(=O)c2ccc(Br)cc2)no1 | i | · | 0.8%
COC(=O)CSc1nnc(CNc2ccc(F)cc2)o1 | i | -0.88 | -0.6%
O=C(NCc1cccs1)C1CCCN(S(=O)(=O)c2ccc3c(c2)OCO3)C1 (stereo unspecified) | i | -0.22 | 2.6%
Cc1csc(NC(=O)CSc2nnc(C)s2)n1 | i | 0.82 | 6.4%
COc1ccc(C2CC2/C(=N/OC(=O)c2cccs2)c2ccccc2)cc1 (stereo unspecified) | i | · | 6.3%
Cc1ccc(NC(=O)CSc2nnc(C3CCCCC3)n2N)cc1F | i | -2.06 | -4.6%
CCNc1nc(NC(C)C)nc(N(C#N)Cc2ccccc2)n1 | i | 2.03 | -0.4%
C/C(=N\OC(=O)c1cccc(Cl)c1)c1sc(C)nc1C | i | · | 0.7%
CCOC(=O)CNC(=O)C(CO)NC(=O)OCc1ccccc1 (stereo unspecified) | i | -0.95 | 0.9%
COc1ccc(N(C(=O)c2ccco2)S(=O)(=O)c2cc(Cl)c(Cl)cc2Cl)cc1 | i | · | 0.3%
O=S(=O)(Nc1cccnc1)c1cccc(Cl)c1 | i | · | 0.3%
Cc1ccc(C(=O)NC2CC3CCC(C2)N3Cc2ccco2)cc1 (stereo unspecified) | i | · | 2.7%
COc1ccc(CN2CC(C(=O)NCCCN3CCOCC3)CC2=O)cc1 (stereo unspecified) | i | -0.99 | 0.6%
Cc1ccc(NC(=O)C2CCCN(S(=O)(=O)c3cnc[nH]3)C2)cc1C (stereo unspecified) | i | -0.24 | -0.9%
COc1ccc(C(c2sc3nc(C)nn3c2O)N2CCN(CCO)CC2)cc1OC (stereo unspecified) | i | 0.26 | 3.4%
CCOC(=O)C1CCN(C(=O)CCn2c(=O)[nH]c3ccsc3c2=O)CC1 | i | -0.06 | 3.1%
CC(C)NC(=O)CN(C(=O)CCC(=O)Nc1ccccn1)c1ccc(F)c(Cl)c1 | i | -0.82 | -1.8%
O=C(Nc1nc(-c2ccccn2)cs1)c1ccc(Br)s1 | i | · | 0.2%
Cc1nc(C)c(C(=O)C2=C(O)C(=O)N(CCN3CCOCC3)C2c2ccco2)s1 (stereo unspecified) | i | 0.16 | 1.2%
O=c1[nH]c(N2CCc3ccccc32)nc2c1CCCC2 | i | -0.4 | 4.0%
CCC(=O)Nc1c(C)c(CC)nc2ccccc12 | i | -1.21 | -0.6%
Cn1c(N)c(C(=O)NCc2ccccc2Cl)sc1=S | i | 0.9 | -2.0%
CCOC(=O)C1(Cc2ccc(O)cc2)NC(c2ccco2)C2C(=O)N(c3ccccc3F)C(=O)C21 (stereo unspecified) | i | -0.18 | 1.8%
OC1(c2cccc(C(F)(F)F)c2)CCN(c2ncnc3c2[nH]c2ccc(F)cc23)CC1 | i | -1.22 | -3.2%
Cc1ccc(N(CC(O)CON=C2c3ccccc3-c3ccccc32)S(C)(=O)=O)cc1 (stereo unspecified) | i | · | -1.3%
Cc1cccc(NC(=O)COc2nsnc2N2CCOCC2)c1 | i | 2.13 | -9.1%
CCCCC(=O)C1CCN(Cc2ccccc2)CC1 | i | -0.62 | -1.9%
CCC(C)NS(=O)(=O)c1ccc(NC(C)=O)cc1 (stereo unspecified) | i | · | 7.4%
COc1ccc(N=C2C(=O)Nc3ccccc32)cc1 | i | 0.07 | 0.8%
Cc1cc(NC(=O)c2cc(-c3ccccc3)on2)no1 | i | · | -2.1%
CC(=O)Nc1ccc(S(=O)(=O)NC(C(=O)O)C(C)C)cc1 (stereo unspecified) | i | · | -1.8%
O=C(O)CSCCn1cccn1 | i | 0.43 | 1.2%
CCOC(=O)c1ccccc1NC(=O)Nc1ccc(OC)c(OC)c1 | i | 1.27 | 1.4%
Nc1nc(SCc2ccccc2Cl)ns1 | i | · | 4.9%

# More results follow:
Compound | MT1-MMP promoter | WNV protease inh | Hsc70 ATP site
Fc1ccc(Br)cc1/C=N/n1cnnc1 | i | -1.2 | 14.0%
CCn1c(N)c(C(=O)NCc2ccc3c(c2)OCO3)sc1=S | i | -0.6 | -5.1%
O=c1[nH]c(SCc2n[nH]c(=S)n2-c2ccccc2)nc2sc3c(c12)CCC3 | i | · | -2.2%
C=CCn1c(SCC(=O)Nc2nc3ccccc3s2)nnc1-c1ccccc1O | i | -0.69 | 4.2%
O=C(Nc1ccc2c(c1)OCO2)c1cnc2n(c1=O)CCS2 | i | 0.73 | -1.9%
CC(=O)C1=C(O)C(=O)N(CCC(=O)O)C1c1cccc(F)c1 (stereo unspecified) | i | -0.99 | -1.0%
O=C(c1cccs1)N1CCN(C2CCN(Cc3ccccc3)CC2)CC1 | i | 0.44 | -6.5%
O=C(NCC1CCCO1)c1cccc(N2CCCC2=O)c1 (stereo unspecified) | i | -0.7 | -1.0%
O=C(Cc1c(C(=O)O)[nH]c2ccccc12)NC1CCN(Cc2ccccc2)CC1 | i | -1.09 | -1.2%
CCOc1ccc(-c2nnc(-c3cccs3)o2)cc1OCC | i | -1.01 | -0.3%
CCOC(=O)N1CC=C2C(C#N)=C(N)C(C#N)(C#N)[C@H](c3ccsc3)[C@H]2C1 | i | 0.94 | 9.2%
CSc1nc(-c2ccco2)nn1S(=O)(=O)c1ccc(C)cc1 | i | -0.64 | 3.9%
O=C(Nc1ccccc1)OCCNC(=O)c1cccc(Cl)c1 | i | · | 1.6%
COc1cccc(C2CC(c3cccc(C)c3)n3ncnc3N2)c1 (stereo unspecified) | i | 0.64 | -0.1%
O=C(c1ccco1)N1CCN(C(=O)c2cccc3c2C(=O)N(C2CCCCC2)C3)CC1 | i | -1.13 | -1.1%
O=c1[nH]cnc2[nH]ncc12 | i | 0.22 | -0.9%
Cn1c(=O)c2c(nc(N3CCCCC3)n2CCSc2nc3ccccc3s2)n(C)c1=O | i | 1.14 | 1.3%
N#C/C(=C1\C(=O)Nc2c(Cl)cc(Cl)cc21)c1nnc2n1CCCCC2 | i | · | -2.4%
Cc1ccc(OCC(=O)Nc2nnn(C)n2)c(C)c1 | i | 1.8 | -0.6%
CC1CCN(C(=O)c2cc3nc(-c4ccccc4)cc(-c4ccccc4)n3n2)CC1 | i | · | 3.5%
COC(=O)C1=C(N)Oc2cc(N(C)C)ccc2C1c1ccccc1OC (stereo unspecified) | i | -0.05 | -51.3%
O=C(CNC(=O)c1ccccc1F)NC1CC1 | i | 1.11 | -0.2%
CC(=O)N1CCc2cc(S(=O)(=O)NCCC(=O)Nc3cc(C)cc(C)c3)ccc21 | i | -0.67 | 1.7%
COC(=O)N(C)CCCC1(C)C(=O)N(C)c2ccc(O)cc21 (stereo unspecified) | i | 0.53 | -2.3%
O=C(N1CCOCC1)C(F)(F)C(F)(F)C(F)(F)C(F)(F)C(=O)N1CCOCC1 | i | -0.94 | -0.3%

# An excerpt of these results, with each value named.
structure: CC1CCN(C(=O)c2cc3nc(-c4ccccc4)cc(-c4ccccc4)n3n2)CC1
  MT1-MMP promoter: i; WNV protease inh: ·; Hsc70 ATP site: 3.5%
structure: O=C(c1ccco1)N1CCN(C(=O)c2cccc3c2C(=O)N(C2CCCCC2)C3)CC1
  MT1-MMP promoter: i; WNV protease inh: -1.13; Hsc70 ATP site: -1.1%

# Complete entries as entered above. Order of screens: MT1-MMP promoter | WNV protease inh | Hsc70 ATP site
# Results for CSc1nc(-c2ccco2)nn1S(=O)(=O)c1ccc(C)cc1 → i | -0.64 | 3.9%
# Results for CCOc1ccc(-c2nnc(-c3cccs3)o2)cc1OCC → i | -1.01 | -0.3%
# Results for O=c1[nH]cnc2[nH]ncc12 → i | 0.22 | -0.9%
# Results for O=C(c1cccs1)N1CCN(C2CCN(Cc3ccccc3)CC2)CC1 → i | 0.44 | -6.5%

# Following part.
Compound | MT1-MMP promoter | WNV protease inh | Hsc70 ATP site
COCCCn1c(SCC(=O)N2CCCCC2C)nnc1-c1ccco1 (stereo unspecified) | i | 0.84 | -3.5%
Cc1cccc(C)c1OCc1nnc(SCC(=O)Nc2ccccc2F)o1 | i | -0.15 | 2.0%
CCc1c(C)c(C#N)c2nc3ccccc3n2c1N(C)C | i | -0.77 | 0.9%
COc1cccc(C2=CC(c3cccc(OC)c3OC)n3nnnc3N2)c1 (stereo unspecified) | i | -1.18 | -2.5%
O=C(O)c1ccccc1S(=O)(=O)NCC(O)COC1CCCCC1 (stereo unspecified) | i | 0.47 | 6.1%
Cn1c(=O)c2c(-c3ccc(C(C)(C)C)cc3)n(CC3CCCO3)cc2n(C)c1=O (stereo unspecified) | i | · | -3.4%
CCC(C(=O)NCc1ccco1)N(C(=O)CNS(=O)(=O)c1ccc(C)cc1)c1ccccc1OC (stereo unspecified) | i | 0.27 | 5.3%
Cc1ccccc1OCC(O)Cn1nnc2ccccc21 (stereo unspecified) | i | · | -7.1%
CCc1ccc(C2=NN(S(C)(=O)=O)C(c3cccs3)C2)cc1 (stereo unspecified) | i | · | -73.2%
Cc1cc2nc3c(nc2cc1C)C1(C(=O)O)CCC3(C)C1(C)C (stereo unspecified) | i | -0.35 | 1.0%
O=C(NC1CCCC1)C(c1ccccc1)N(C(=O)c1ccno1)c1cccnc1 (stereo unspecified) | i | -0.12 | -2.7%
CCN(CC)CCOC(=O)c1ccc(NC(=O)COc2cc(=O)n(CC)c3ccccc23)cc1 | i | -0.36 | -1.1%
CC(CCc1ccccc1)NCC(O)c1ccc(O)c(C(N)=O)c1 (stereo unspecified) | i | 0.71 | 1.0%
CCOC(=O)c1c(NC(=O)CSc2nc3c(c(=O)n(C)c(=O)n3C)n2CC)sc(C)c1C | i | -1.08 | -2.6%
CCN1CNC(=S)N(c2cc(C)ccc2C)C1 | i | · | -0.2%
NC(=O)C1CCN(C(=O)N2c3ccccc3Sc3ccccc32)CC1 | i | 0.86 | -6.3%
O=C(O)CC1Oc2ccc(Cl)cc2NC1=O (stereo unspecified) | i | 0.66 | -2.2%
CCOc1ccccc1C(=O)Nc1nnc(COC)s1 | i | · | 3.2%
CCOc1cc(C(=O)NCCOC)ccc1OC | i | -0.79 | 6.5%
CCOC(=O)N1CCN(C(=O)C(C)n2nc(C)n3c(cc4sccc43)c2=O)CC1 (stereo unspecified) | i | 1.33 | -2.2%
CCOC(=O)C(NC(C)=O)(Nc1ccc(F)cc1)C(F)(F)F (stereo unspecified) | i | -0.5 | -9.5%
CSc1nc2ccc(S(=O)(=O)N(C)C)cc2s1 | i | · | 7.0%
O=C(Nc1cc(F)ccc1F)C1CCCO1 (stereo unspecified) | i | · | -3.2%
c1ccc2c(c1)OCC(c1nnc3sc(-c4cnccn4)nn13)O2 (stereo unspecified) | i | -1.57 | 3.2%
CC1Oc2ccccc2N(CC(=O)N(Cc2ccccc2)Cc2ccccn2)C1=O (stereo unspecified) | i | -0.00267 | 4.1%
Cc1ccc(S/C(=N\S(=O)(=O)c2ccc(Cl)cc2)c2ccccc2)cc1 | i | · | 2.6%
NC(=O)c1sc2cc(C(F)(F)F)cnc2c1-c1cccs1 | i | · | -2.2%
CC1CCCCC12NC(=O)N(CC(=O)NCCc1ccccn1)C2=O (stereo unspecified) | i | -0.62 | -0.5%
NC1=NS(=O)(=O)NC1c1cccc(Cl)c1 (stereo unspecified) | i | · | 5.6%
O=C(Nc1ccc2nn(-c3ccccc3)nc2c1)c1ccc2c(c1)OCCO2 | i | -0.63 | -1.6%
Cc1ccc2c(c1)nnn2C1CCN(C(=O)C2CCCCC2)CC1 | i | 2.71 | -3.1%
O=C(O)CNC1=NCCCCC1 | i | -0.48 | -1.7%
COc1ccc(C(c2nnnn2Cc2cccs2)N2CCN(c3ccc(F)cc3)CC2)cc1OC (stereo unspecified) | i | -0.72 | -0.2%

# Assay outcomes from PubChem.
